GIV-Gai inh: inhibitors of GIV GBA-motif binding to rat Galpha-i3; Galpha-i3/FITC-GIV peptide fluorescence polarization, 90 min; stronger effect = lower value; scaled: aluminum fluoride 0%, vehicle 100%; 0.42% of 210,000 active; percent of control (FP), % (concentration not given with the values);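 active = replicate mean at 85% of control or lower, very high polarization wells dropped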;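 also: wells of about 15 µL received 100 nL stock; the first replicate is given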
Target sequence (P08753 whole entry, looked up): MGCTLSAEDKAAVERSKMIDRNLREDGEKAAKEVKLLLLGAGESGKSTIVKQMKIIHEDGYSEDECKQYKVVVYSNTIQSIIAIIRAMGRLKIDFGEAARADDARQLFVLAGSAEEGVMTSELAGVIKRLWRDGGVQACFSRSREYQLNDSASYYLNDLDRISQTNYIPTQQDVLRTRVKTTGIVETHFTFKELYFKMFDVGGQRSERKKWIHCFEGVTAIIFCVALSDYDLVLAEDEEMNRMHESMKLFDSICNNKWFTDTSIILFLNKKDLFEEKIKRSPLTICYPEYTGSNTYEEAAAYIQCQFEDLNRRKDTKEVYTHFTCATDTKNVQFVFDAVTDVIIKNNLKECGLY
* marks the source's active call; other numbers are inactive results.

#	GIV-Gai inh	Compound
1	98.0	Cc1ccc(-c2ccnc3c(C(=O)NCCc4c[nH]c5ccccc45)cnn23)cc1C
2	101.3	Cc1ccccc1NC(=O)Nc1ccc(CCc2nc3ccccc3[nH]2)cc1
3	107.4	O=C(c1ccccc1)N1N=C2c3ccccc3S(=O)(=O)N2C1N1CCCCC1 (centres undefined)
4	101.9	CC(C)(C)c1ccc(-c2noc(-c3nn(-c4cccc(F)c4)ccc3=O)n2)cc1
5	106.2	O=C(Nc1ccsc1-c1nnc(C2CC2)o1)c1ccoc1
6	107.0	Cc1cc(Br)ccc1NC(=O)c1sc2ncn(CC(=O)N3CCN(c4ccccn4)CC3)c(=O)c2c1C
7	104.1	O=C1CC(n2nnn(-c3ccccc3)c2=S)C2COC1O2 (centres undefined)
8	114.0	COCCOC(=O)C1=C(C)NC(C)=C(C(=O)OCCOC)C1c1cn(-c2ccccc2)nc1-c1ccc(F)cc1
9	109.2	Cc1ccccc1Cn1c(=O)c2c(ncn2Cc2ccccc2)n(C)c1=O
10	108.6	Cc1ccc(CNS(=O)(=O)c2ccc(-c3nnc(C)o3)o2)o1
11	108.7	O=C1C2ON(c3ccc(Cl)cc3)C(c3cccs3)C2C(=O)N1Cc1ccccc1 (centres undefined)
12	109.9	O=C(CSc1nc(NCc2ccc(Cl)cc2)c2ccccc2n1)NCC1CCCO1 (centres undefined)
13	106.3	COc1ccc(-c2nc(-c3ccc4c(c3)C(=O)c3cc(-c5[nH]c(-c6ccc(OC)cc6)nc5-c5ccccc5)ccc3-4)c(-c3ccccc3)[nH]2)cc1
14	116.1	O=C1CC(c2ccccc2F)c2c(ccc3ccccc23)N1 (centres undefined)
15	96.2	Cc1nccn1Cc1noc(-c2cccs2)n1
16	103.0	CCOc1cc(C2NC(=O)c3c(sc4c3CCCC4)N2)ccc1OC(=O)c1cccs1 (centres undefined)
17	110.1	O=C(NCC1CCCO1)c1ccc2c(=O)n(CC3CCCO3)c(SCC(=O)N3CCCC3)nc2c1 (centres undefined)
18	105.9	CN1c2ccccc2C(C)(C)C12C=Cc1ccccc1O2 (centres undefined)
19	103.9	O=C(NC1CC1)c1ccc2ccnc(N3CCN(c4ccc(F)cc4)CC3)c2c1
20	110.2	COc1ccc(C2C=C(c3cccc(Br)c3)Nc3nc4ccccc4n32)cc1OC (centres undefined)

Reformatted with tabs: 3 of the compounds above.
#	compound	GIV-Gai inh
18	CN1c2ccccc2C(C)(C)C12C=Cc1ccccc1O2 (centres undefined)	105.9
19	O=C(NC1CC1)c1ccc2ccnc(N3CCN(c4ccc(F)cc4)CC3)c2c1	103.9
20	COc1ccc(C2C=C(c3cccc(Br)c3)Nc3nc4ccccc4n32)cc1OC (centres undefined)	110.2

(more compounds)
#	GIV-Gai inh	Compound
21	107.9	O=C(Cn1ncc2c(c1=O)N(C1CC1)C(=O)CS2)NCc1ccco1
22	105.6	CCn1nc(C)c2ccnc(N3CCC(C(=O)NCCCN4CCC(N5CCCCC5)CC4)CC3)c21
23	101.2	CCSc1ccc(-c2sc(-c3ccc(F)cc3)nc2C)nn1
24	106.1	COc1cc(C2C(C(=O)OC3CCCC3)=C(C)NC3=C2C(=O)CC(c2cccs2)C3)cc([N+](=O)[O-])c1O (centres undefined)
25	111.6	O=C(Nc1ccccc1)C1CC(=O)N(Cc2ccccc2)C(=Nc2ccc(F)cc2)S1 (centres undefined)
26	96.7	O=C(Nc1cc(F)ccc1F)C1Oc2ccccc2NC1=O (centres undefined)
27	101.7	Cn1c(SCC(=O)Nc2ccc(F)cc2F)nc2cc(-c3ccccc3)sc2c1=O
28	107.7	CCOc1ccc(NC(=O)C2=C(C)NC(=S)NC2c2ccc(OC)cc2OC)cc1 (centres undefined)
29	101.9	CN1CCCc2cc(C(=O)NC3CCCCC3)sc21
30	126.6	CCCCC(C(=O)Nc1ccc(Br)cc1)N1C(=O)C2C3c4ccccc4C(c4ccccc43)C2C1=O (centres undefined)
31	98.7	Cc1nc(-c2csc(S(=O)(=O)NCc3ccccc3Cl)c2)sc1C
32	100.9	CCCc1cc(Sc2ccc(NC(=O)C(C)C)cc2)n2ncnc2n1
33	112.9	Cc1noc(C)c1C1CCCN1C(=O)NCC1CCCO1 (centres undefined)
34	95.4	O=S(=O)(c1ccccc1)N1CCN(c2ncnc3c2nnn3-c2ccccc2)CC1
35	112.4	COc1cccc(CSc2ccc(S(=O)(=O)N3CCOCC3)cc2C(=O)NCc2ccco2)c1OC
36	104.9	CCOC(=O)c1c(C)[nH]c(CCC(=O)Nc2ccsc2C(=O)OC)c1C
37	103.0	CCOC(=O)c1c(CN2CCN(CCO)CC2)n(C)c2cc(Br)c(OC(C)=O)cc12
38	106.9	Cn1c(=O)[nH]c(=O)c2c1nc(N)n2Cc1ccccc1
39	106.0	CCOc1ccccc1NC(=O)c1sc2ncnc(N(CC)CC)c2c1C
40	103.0	COCCNC(=O)c1ccc(NCc2ccccc2OC)c(S(=O)(=O)Nc2cccc(C(F)(F)F)c2)c1

Entries by screen from the entries so far.
Compounds 27–38 in GIV-Gai inh: 101.7, 107.7, 101.9, 126.6, 98.7, 100.9, 112.9, 95.4, 112.4, 104.9, 103.0, 106.9

Compounds from the list above containing fluorine, in the order listed:
#	GIV-Gai inh	Compound
4	101.9	CC(C)(C)c1ccc(-c2noc(-c3nn(-c4cccc(F)c4)ccc3=O)n2)cc1
8	114.0	COCCOC(=O)C1=C(C)NC(C)=C(C(=O)OCCOC)C1c1cn(-c2ccccc2)nc1-c1ccc(F)cc1
14	116.1	O=C1CC(c2ccccc2F)c2c(ccc3ccccc23)N1 (centres undefined)
19	103.9	O=C(NC1CC1)c1ccc2ccnc(N3CCN(c4ccc(F)cc4)CC3)c2c1
23	101.2	CCSc1ccc(-c2sc(-c3ccc(F)cc3)nc2C)nn1
25	111.6	O=C(Nc1ccccc1)C1CC(=O)N(Cc2ccccc2)C(=Nc2ccc(F)cc2)S1 (centres undefined)
26	96.7	O=C(Nc1cc(F)ccc1F)C1Oc2ccccc2NC1=O (centres undefined)
27	101.7	Cn1c(SCC(=O)Nc2ccc(F)cc2F)nc2cc(-c3ccccc3)sc2c1=O
40	103.0	COCCNC(=O)c1ccc(NCc2ccccc2OC)c(S(=O)(=O)Nc2cccc(C(F)(F)F)c2)c1

(listing goes on)
#	GIV-Gai inh	Compound
41	106.2	Cc1nn(-c2ccc(-c3ccccc3)nn2)c(C)c1S(=O)(=O)N1CCN(C2CCCCC2)CC1
42	114.6	Cc1ccc(NC(=O)c2sc(=S)n(-c3ccccc3C)c2N)cc1
43	101.6	COCCn1c(=S)[nH]c2cc(C(=O)N3CCC(O)(c4cccc(C(F)(F)F)c4)CC3)ccc2c1=O
44	104.6	CC1(C(=O)NCc2ccc(F)cc2)CCCN(S(=O)(=O)c2ccc(F)c(Cl)c2)C1 (centres undefined)
45	105.6	COCCNC(=O)Cn1cnc2nn(-c3ccc(C)cc3)cc2c1=O
46	109.7	Cn1nc(-c2nc(C3CC3)no2)c2c1CCN(C(=O)Cc1ccsc1)C2
47	112.1	CCCCC(C(=O)Nc1ccc(F)cc1)N1C(=O)C2C3c4ccccc4C(c4ccccc43)C2C1=O (centres undefined)
48	123.3	CN(CCc1ccccn1)C(=O)c1cc2nc(-c3ccc4c(c3)OCO4)cc(C(F)(F)F)n2n1
49	105.0	CCOC(=O)c1ccc(NC(=O)Cn2nc3c(Oc4ccccc4)nccn3c2=O)cc1
50	106.6	CCc1ccc(NC(=O)c2ccc(Nc3ncc(-c4cccc(F)c4)cn3)cc2)cc1
51	100.1	O=C(Nc1cccn2c(C3CCC3)nnc12)C1CCCO1 (centres undefined)
52	100.3	COc1ccc(C(=O)N2CCCN(Cc3noc(-c4ccccc4)n3)CC2)cc1
53	104.3	COc1ccc(CN2CCCC2c2c(C)noc2C)cc1 (centres undefined)
54	106.7	O=C(NC1CCCC1)c1ccc(-n2nc(N3CCCC3)ccc2=O)cc1
55	97.6	Cc1cccc(NC(=O)N(Cc2nnc3n2CCCCC3)c2ccccc2)c1
56	95.9	O=C(Nc1ccc(F)cc1F)N1CCC(N2CCN(Cc3cccc(F)c3)C(=O)C2=O)CC1
57	116.9	COC(=O)C1=CN(Cc2ccc(OC)c(OC)c2)C=C(C(=O)OC)C1c1cccc(Br)c1
58	115.3	CC(=O)n1c2c(c3ccccc31)OC(N)=C(C#N)C2c1cccc([N+](=O)[O-])c1 (centres undefined)
59	101.9	Cc1c2c(nn1-c1ccc(SCC(=O)NCC3CCCO3)nn1)CCC2 (centres undefined)
60	97.2	CCS(=O)(=O)Nc1ccc(C2(C(=O)N(C)Cc3ccccc3)CCCCC2)cc1
61	107.6	C=CCNC(=O)C(=O)Nc1cccc(C(F)(F)F)c1
62	103.1	Cc1noc(C)c1C1CCCN1S(=O)(=O)c1cc(F)ccc1F (centres undefined)
63	102.2	Cc1cc(NC(=O)CSc2nc3c(c(-c4cccnc4)c2C#N)CCC3)no1
64	104.7	C=CCn1c(SCC(=O)Nc2ccccc2Cl)nc2sc(CC)cc2c1=O
65	102.4	O=C(Cn1ccnc1)N1CCCC(OCc2nc(C3CC3)no2)C1 (centres undefined)
66	113.1	CCC(C)(C)C1C/C(=C\c2cc(OC)c(OC)c(OC)c2)C(=O)/C(=C/c2cc(OC)c(OC)c(OC)c2)C1 (centres undefined)
67	101.8	CCCCNC(=O)CSc1nc(NCCOC)c2ccccc2n1
68	98.9	Cc1ccc(C(=O)C(C)n2c(=O)n3nc(-c4ccccc4)nc3c3ccccc32)cc1C (centres undefined)
69	102.8	Cc1ccc(CNC(=O)c2nc(N3CCCC3)c3oc4ccccc4c3n2)cc1
70	106.2	COc1ccc(-n2ncc3c(NC(c4ccccc4)c4ccccc4)ncnc32)cc1
71	109.1	CC1C=CCC2C(=O)N(c3cccc(C(=O)N4CCC(Cc5ccccc5)CC4)c3)C(=O)C12 (centres undefined)
72	100.0	Cc1noc(C)c1C1CCCN1Cc1ccc(OC(C)C)cc1 (centres undefined)
73	108.8	COc1ccc(C(=O)C[n+]2cc(-c3ccc(C)cc3)n3c2CCCCC3)cc1OC
74	103.0	O=C(COc1ncnc2onc(-c3ccc(F)cc3)c12)NCc1ccc(F)cc1Cl
75	105.3	O=C(O)c1cccnc1SCc1cccc(F)c1
76	100.9	O=C(O)c1c[nH]c2ccc(S(=O)(=O)N3CCc4ccccc43)cc2c1=O
77	106.5	CCc1nc(CN2C(=O)COc3ccc(S(=O)(=O)NCCC(C)C)cc32)no1
78	101.9	Cc1cc(SCC(=O)N2CCc3ccccc32)nc2ccc(S(=O)(=O)N3CCCC3)cc12
79	106.8	NC(=O)C1CCN(C(=O)c2ccc3c(=O)n(Cc4ccco4)c(SCc4ccc(F)cc4Cl)nc3c2)CC1
80	105.2	O=C1CC(n2nc(-c3ccco3)n(-c3ccccc3)c2=S)C2COC1O2 (centres undefined)
81	102.0	COC(=O)C1=NNC2C(=O)N(c3ccccc3C)C(=O)C12 (centres undefined)
82	97.9	COc1cc(OC)cc(C(=O)Nc2cc(C(=O)Nc3cccc(C)n3)ccc2N2CC3CC(C2)c2cccc(=O)n2C3)c1 (centres undefined)
83	110.7	COc1cc(/C=C2\SC(=N)N(c3ccc4c(c3)OCO4)C2=O)cc(OC)c1O
84	103.6	O=C(O)c1cccc(N2C(=O)C3C4C=CC(C4=C(c4ccccc4)c4ccccc4)C3C2=O)c1 (centres undefined)
85	120.0	CCOC(=O)c1[nH]c(C)c(CN(C(=O)Nc2ccccc2OCC)C2CCCCC2)c1C
86	98.6	Cc1nc(C)c(-c2nc(-c3ccc4c(c3)Sc3ccccc3C(=O)N4C3CCCC3)no2)s1
87	104.8	Cn1c(=O)n(Cc2ccncc2)c(=O)c2cnc(-c3ccncc3)nc21
88	104.9	CCCc1cc(C2CCCN2C(=O)Nc2sc3c(c2C(=O)OC)CCCC3)no1 (centres undefined)
89	104.0	O=C1C(=O)N(CCCN2CCOCC2)C(c2ccccc2F)/C1=C(\O)c1ccc(F)cc1 (centres undefined)
90	110.1	CC(=O)c1c(C)oc2ccc(N(C(=O)c3ccc(C)cc3)S(=O)(=O)c3ccc4ccccc4c3)cc12
91	105.9	C=CCN(C)C(=O)c1cc2sc(C)cc2n1C
92	112.0	CC12CN3CC(C)(CN(C1)C3(C)c1ccccc1)C2=O (centres undefined)
93	107.5	CCN(CCCNc1cc(C(=O)O)c2ccccc2n1)c1ccccc1
94	-22.3*	Clc1ccc(C2=CC(c3ccc(Br)cc3)n3ncnc3N2)s1 (centres undefined)
95	107.2	Cc1noc(C)c1C1CCCN1C(=O)Nc1ccccc1Br (centres undefined)
96	108.5	COc1cc(C2C(C#N)=C(N)OC3=C2C(=O)CC(c2ccco2)C3)cc(OC)c1OC (centres undefined)
97	104.0	Cc1noc2nc(CCC(=O)NCCC3=CCCCC3)nc(N3CC(C)CC(C)C3)c12 (centres undefined)
98	101.9	CCCC(=O)N1CCc2c(c(C(=O)N3CCCC(C(=O)N(CC)CC)C3)nn2C)C1 (centres undefined)
99	105.1	CCOC(=O)c1c(S(=O)(=O)N2CCC(C(=O)Nc3cccc(Br)c3)CC2)c(C)n(C)c1C
100	97.7	O=C(NCc1c(-c2ccc(F)cc2)nc2n1CCS2)C1CC1

Further compounds:
#	GIV-Gai inh	Compound
101	108.1	COc1ccc(C(=O)c2oc3ccc4c(C)cc(=O)oc4c3c2-c2ccccc2)cc1
102	106.5	Clc1cccc(Nc2nc3nonc3nc2N2CCCCC2)c1
103	99.2	O=C(NCc1ccc(F)cc1)c1cnn2c(-c3ccccc3)ccnc12
104	118.1	CCCCCCOc1ccc(/C=C2\c3cc([N+](=O)[O-])ccc3-c3c2cc([N+](=O)[O-])cc3[N+](=O)[O-])cc1
105	118.4	CCc1ccc(-c2[nH]ncc2CN2CCCC2c2c(C)noc2C)cc1 (centres undefined)
106	104.5	O=C(Nc1cccnc1)c1ccc(-c2nc(-c3ccccc3)no2)cc1
107	110.8	Cc1ccc(C2N(c3ccccc3)C(=O)N3CCCN23)cc1 (centres undefined)
108	102.1	CCCOc1ccc2c3c(c(=O)oc2c1)CCCC3
109	102.3	CC(=O)n1cc(/C=c2\sc3nc4cc(C)c(C)cc4n3c2=O)c(-c2ccc(F)cc2)n1
110	109.4	CCC1(C)OC(=O)N(CCC#N)C1(C)O (centres undefined)
111	103.4	O=C(O)CC(NS(=O)(=O)c1cccc2nsnc12)c1ccc(Cl)cc1 (centres undefined)
112	108.1	COc1ccc(N2CCN(S(=O)(=O)c3ccc(F)c(C(=O)Nc4cccc(C)c4C)c3)CC2)cc1
113	101.4	Cc1ccccc1CNC(=O)COc1ccc(-c2cnc3ccccc3n2)cc1

Compound activity as filed in PubChem BioAssay.

The list is partial, so the mix of outcomes need not match the whole.
